Measles inh – inhibitors of measles virus growth in infected cells | z-score (concentration not given with the values) | infected Vero cells, GFP fluorescence, 64 h; hits give low values | 33,000 compounds, 0.1% hits | AID 745;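 active = z-score under -3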;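 note: score is relative to mean and SD of the compound wells of a plate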
Starred values were filed as active, the others as inactive.

SMILES | Measles inh
Cc1cc(Nc2ccc(C(=O)O)cc2)c2cccc(C)c2n1 | -0.33
CCOC(=O)Oc1ccc2c(=O)c(Oc3cc(C)ccc3C)coc2c1 | -0.12
Oc1ccc(Cl)cc1CNc1nc2c(s1)CCc1ccccc1-2 | 1.07
CCCCNC(=O)CCCn1c(=O)[nH]c2ccsc2c1=O | -1.03
COc1ccc(Cn2c(=O)oc3ccccc32)cc1OC | -0.64
COc1ccc(CC(=O)N2CC(=O)Nc3ccc(Cl)cc3C2c2ccc(F)cc2)cc1OC (centres undefined) | 1.99
O=C(CCSc1nc(-c2ccc3c(c2)OCO3)cc(C(F)(F)F)n1)N1CCCCCC1 | -0.5
O=C(NCC1COc2ccccc2O1)C1C2C=CC3(CN(Cc4cccs4)C(=O)C13)O2 (centres undefined) | -0.77
O=C(Nc1ccccc1Br)C12CC3CC(C1)CC(C(=O)Nc1ccccc1Br)(C3)C2 | -0.23
CCc1cccc(CC)c1NC(=O)c1cc(S(=O)(=O)N2CCN(c3ccccc3F)CC2)ccc1F | -0.64
O=C(O)c1cc([N+](=O)[O-])ccc1NCc1cccnc1 | -0.49
Cc1cc(C)n2nnnc2c1C#N | 0.46
O=C1CSC(c2cccc(Br)c2)N1c1ccc2ccccc2c1 (centres undefined) | -0.39
Cc1cccc(-c2nc3cc(NCc4cc(I)cc(C)c4O)ccc3o2)c1 | -0.29
CCc1ccc2nc(N3CCC(C(=O)NCC4CCCO4)CC3)sc2c1 (centres undefined) | 0.19

3 of the compounds above, in CSV form:
structure,Measles inh
COc1ccc(CC(=O)N2CC(=O)Nc3ccc(Cl)cc3C2c2ccc(F)cc2)cc1OC (centres undefined),1.99
Oc1ccc(Cl)cc1CNc1nc2c(s1)CCc1ccccc1-2,1.07
CCOC(=O)Oc1ccc2c(=O)c(Oc3cc(C)ccc3C)coc2c1,-0.12

Back to the main list, repeating the 6 entries before the break.
SMILES | Measles inh
CCc1cccc(CC)c1NC(=O)c1cc(S(=O)(=O)N2CCN(c3ccccc3F)CC2)ccc1F | -0.64
O=C(O)c1cc([N+](=O)[O-])ccc1NCc1cccnc1 | -0.49
Cc1cc(C)n2nnnc2c1C#N | 0.46
O=C1CSC(c2cccc(Br)c2)N1c1ccc2ccccc2c1 (centres undefined) | -0.39
Cc1cccc(-c2nc3cc(NCc4cc(I)cc(C)c4O)ccc3o2)c1 | -0.29
CCc1ccc2nc(N3CCC(C(=O)NCC4CCCO4)CC3)sc2c1 (centres undefined) | 0.19
COc1ccc(CCNc2cc(N3CCN(S(C)(=O)=O)CC3)ccc2[N+](=O)[O-])cc1OC | -0.82
COC(=O)c1nnn(CC(=O)Nc2cccc(Cl)c2)c1C(=O)OC | -0.01
CCOc1cc(C(=S)N2CCCCC2)ccc1OC(=O)c1ccc([N+](=O)[O-])cc1 | -0.48
O=C(Cn1cnc2scc(-c3ccccc3)c2c1=O)NCCC1=CCCCC1 | -0.58
CSc1ccc(C2C=C(c3ccc(Cl)cc3)Nc3ncnn32)cc1 (centres undefined) | 1.45
O=C1C(Cl)=C(Nc2ccccc2O)C(=O)N1c1cccc(C(F)(F)F)c1 | -0.03
O=C(CCSc1nc(-c2ccc3c(c2)OCO3)cc(C(F)(F)F)n1)N1CCSCC1 | -0.88
CCCCCCc1ccc(C(=O)Nc2cc3cc([N+](=O)[O-])ccc3oc2=O)cc1 | -0.29
CCOc1ccc(CNC(=O)C2c3ccccc3C(=O)N3CCc4ccccc4C23)cc1 (centres undefined) | 0.4
Cc1cc(-n2c(SCC(=O)NCc3cccs3)nc3[nH]ncc3c2=O)ccc1Cl | -0.47
CCC1CCCCN1S(=O)(=O)c1ccc2[nH]c(=O)cc(C(=O)NCc3ccccc3)c2c1 (centres undefined) | 0.96
CCn1cc(C(=O)N(CC2CC=CCC2)CC2CCCO2)c(=O)c2cc(S(=O)(=O)N3CC(C)CC(C)C3)ccc21 (centres undefined) | -0.17
CCN(Cc1ccccc1)S(=O)(=O)c1cc(C(=O)Nc2cccc(C)c2)ccc1F | -0.91
Clc1ccc(-c2csc(N3CCSCC3)n2)cc1 | 0.56
Cc1cccc2nc(=S)n(C(=O)c3ccco3)n12 | 0.55

Ordered by count of non-hydrogen atoms (smallest number first): part of the list above.
SMILES | Measles inh
CCCCNC(=O)CCCn1c(=O)[nH]c2ccsc2c1=O | -1.03
O=C1CSC(c2cccc(Br)c2)N1c1ccc2ccccc2c1 (centres undefined) | -0.39
CSc1ccc(C2C=C(c3ccc(Cl)cc3)Nc3ncnn32)cc1 (centres undefined) | 1.45
CCOC(=O)Oc1ccc2c(=O)c(Oc3cc(C)ccc3C)coc2c1 | -0.12
O=C(CCSc1nc(-c2ccc3c(c2)OCO3)cc(C(F)(F)F)n1)N1CCSCC1 | -0.88
COc1ccc(CCNc2cc(N3CCN(S(C)(=O)=O)CC3)ccc2[N+](=O)[O-])cc1OC | -0.82
CCc1cccc(CC)c1NC(=O)c1cc(S(=O)(=O)N2CCN(c3ccccc3F)CC2)ccc1F | -0.64

Going on with the list.
SMILES | Measles inh
Cc1cc(C)c2oc(-c3cc(NC(=O)c4ccc(F)cc4)ccc3Cl)nc2c1 | -0.39
CC(=O)N1CCc2cc(Br)cc(S(=O)(=O)CCC(=O)NCCC(C)C)c21 | 1.23
CC(=O)c1cc2ccc(O)cc2oc1=O | 1.53
CC(C)(C)n1cnc2cc(NCc3ccncc3)ccc21 | 1.75
CCc1cccc(NS(=O)(=O)c2ccc3[nH]c(=O)c(=O)[nH]c3c2)c1 | -0.32
CCNC(=O)C1CC(=O)N(CCCc2ccccc2)C(=Nc2ccc(OC)cc2)S1 (centres undefined) | -0.03
Cc1nc(Cl)c2cc(-c3ccccc3)sc2n1 | 1.05
CC(C)CNC(=O)c1cc(-c2ccc3c(c2)OCO3)on1 | 1.09
Cc1c(C)[n+](=O)c(-c2cccs2)c(C)n1[O-] | 0.29
CC(=O)OCC12COC3c4ccccc4OC(C)(CC1C)C3C2C (centres undefined) | 1.1
O=C(O)C1Sc2c(sc(=O)n2Cc2ccc(Cl)cc2)C2c3ccccc3OC(=O)C12 (centres undefined) | 0.77
CCCCN(CC)S(=O)(=O)c1cc(Br)cc2c1N(C(C)=O)CC2 | -0.41
CCOCc1cnc(C)nc1NCC(=O)c1c(C)[nH]c2ccccc12 | -0.76
COc1ccc(C(CC(=O)O)NC(C)=O)cc1C (centres undefined) | -0.55
Cc1cc2cc(CNS(=O)(=O)c3ccc(Cl)cc3)ccc2[nH]1 | -0.97
Cc1ccc(CCn2c(C)c(C)c3ccccc32)cn1 | -0.43
Cc1ccc(-n2nc3c(c2NC(=O)Cc2ccccc2)CSC3)c(C)c1 | 0.1
Cc1ccc(-c2coc3c(C)c4oc(=O)c5c(c4cc23)CCC5)cc1 | -0.36
Cc1ccc(-n2ncc3c(=O)[nH]c(SCC(=O)NCc4ccco4)nc32)cc1 | -0.2
COc1ccc(C(C)=O)cc1N1C(=O)C2C3C=CC(C3=C(c3ccccc3)c3ccccc3)C2C1=O (centres undefined) | -0.22
CCCCN(c1ccccc1)c1ncnc2c1cnn2-c1ccccc1 | -0.06
O=C(NCCc1ccc(Cl)cc1)c1ccc(CS(=O)(=O)Cc2ccc(F)cc2)o1 | -1.93
Cc1cccc(Oc2ccc(N3C(=O)C4C5C=CC(C5)C4(C)C3=O)cc2)c1C (centres undefined) | -0.33
COc1cccc(OC)c1C(=O)Nc1ccc(-c2nc3ccccc3[nH]2)cc1 | -1.44
Cc1cccc2nc(=S)nc(-c3ccccc3)n12 | -0.02
Cn1c(=O)c2c(SCc3ccccc3F)nc(-c3ccc([N+](=O)[O-])cc3)nc2n(C)c1=O | 0.9
O=C1NC(=S)N(c2ccccc2)C(=O)C1C(c1ccc([N+](=O)[O-])cc1)C1C(=O)NC(=S)N(c2ccccc2)C1=O (centres undefined) | 1.13
CCC(C)NS(=O)(=O)c1ccc2c(c1)CCN2C(=O)C1CC1 (centres undefined) | -1.69
CCOC(=O)c1cnc2cc(C(F)(F)F)ccc2c1Nc1ccccc1OC | 0.62
O=C(Cc1csc(Nc2nc(=S)[nH]c3ccccc23)n1)NCc1ccccc1Cl | 2.22
C=CCSc1ncccc1C(=O)Oc1cccc([N+](=O)[O-])c1 | 1.89
O=C(Nc1ccc(O)c(-c2nc3ccccc3s2)c1)c1ccc([N+](=O)[O-])cc1 | -0.03
Cc1ccsc1C1C=C(c2ccc(Cl)cc2)Nc2nnnn21 (centres undefined) | -0.23
Cc1cccc(NC(=O)c2c(O)c3cccc4c3n(c2=O)CC4)c1C | 0
Cc1cc(NS(=O)(=O)c2ccccc2)c(C)c(S(=O)(=O)c2ccc(Cl)cc2)c1O | -0.23
COc1ccc(-c2csc(=Nc3ccccn3)n2-c2ccccc2)cc1 | -1.09
O=[N+]([O-])c1ccc(N2CCN(Cc3ccccc3)CC2)s1 | -0.27
COc1ccc(C2C(C(=O)Nc3cc(C(F)(F)F)ccc3Cl)=C(C)NC3=C2C(=O)CCC3)c(OC)c1 (centres undefined) | 0.49
CC(C)n1c(=N)c(C(=O)NCc2ccco2)cc2c(=O)n3ccccc3nc21 | 0.89
O=S(=O)(Nc1cccnc1)c1cccc(C(F)(F)F)c1 | 0.86
CC1=NC(C)(C)Cc2c(C)ccc(C)c21 | -0.38
COc1cccc(NC(=O)Cn2cnc3sc(C)c(S(=O)(=O)N4CCN(c5ccccc5OC)CC4)c3c2=O)c1 | 0.58
CCCc1cc(=O)[nH]c(SCC(=O)Nc2cccc(C(F)(F)F)c2)n1 | -1.44
Cc1ccc(C)c(C(=O)COC(=O)c2ccccc2Nc2ccccc2)c1 | -0.7
CCSCCOC(=O)C1=C(C)NC2=C(C(=O)CC(c3ccc(Cl)cc3)C2)C1c1cccc(Cl)c1 (centres undefined) | -1.16
Cc1ccc2c(c1)c1c3n2CCN(CC(O)CN2CCCCCC2)C3CCC1 (centres undefined) | -0.18
O=C(NCCCN1CCOCC1)c1cc(-c2ccc(F)cc2)on1 | 1.76
Cc1cc(C)cc(-n2ccnc2SCC(=O)Nc2ccc3c(c2)OCCO3)c1 | 0.93
Brc1cccc(C2C=C(c3ccc(I)cc3)Nc3ncnn32)c1 (centres undefined) | -0.15
COc1cc2c(cc1OC)C(C)N(c1ccc(N3C(=O)CC(C)C3=O)cc1[N+](=O)[O-])CC2 (centres undefined) | 0.48
OCCN1CCN(C2CCN(Cc3ccco3)CC2)CC1 | -1.3
CCc1ccc(-n2c(=O)c3c4c(sc3n(CC(=O)N(CC)CC)c2=O)CCC4)cc1 | -0.66
O=C(Oc1ccccc1)c1ccc(-c2ccccc2)cc1 | 0.76
CC1(C)CC2=NN(C(=O)c3ccco3)C(c3ccccc3)C2CO1 (centres undefined) | 1.19
Cc1ccc(N2C(=O)c3ccc(C(=O)OCC(=O)c4ccccc4)cc3C2=O)cc1 | -0.46
C1=C(c2ccccc2)Nc2ncnn2C1c1ccccc1 (centres undefined) | -0.27
COC(=O)c1ccc2c(=O)n(CC3CCCO3)c(SCC(=O)Nc3cc(C)on3)nc2c1 (centres undefined) | 0.31
CCn1c(COc2ccc(OC)cc2)nc2ccccc21 | -0.3
Cc1c(C)c2ccc(OCC(=O)O)cc2oc1=O | -0.51
COC(=O)c1ccc(C(=O)Nc2nc3ccc(N)cc3s2)cc1 | 0.12
The listing continues.
SMILES | Measles inh
C=C1Cn2c(nc3c2c(=O)n(C)c(=O)n3C)S1 | -0.2
CC1(C)OC(=O)CC1C#N (centres undefined) | -0.18
CC(C)c1ccc(N2CC(C(=O)Nc3ccccc3C(F)(F)F)CC2=O)cc1 (centres undefined) | 0.59
Nc1c(C(=O)Nc2nccs2)sc2nc3c(c(-c4ccco4)c12)CCCC3 | -0.12
Oc1ccc2nsnc2c1 | 0.89
CC(C)OC(=O)C(C(=O)C(F)(F)F)c1cc(NS(=O)(=O)c2ccc3ccccc3c2)ccc1O (centres undefined) | 0.31
O=C(NCc1ccco1)c1ccc(N2CC3CC(C2)c2cccc(=O)n2C3)c(NC(=O)c2cccnc2)c1 (centres undefined) | 0.87
CCN=C1SC(C(=O)Nc2cccc(C(=O)O)c2)CC(=O)N1CC (centres undefined) | -0.03
O=S1(=O)N=C(Nc2ccc(O)cc2)c2ccccc21 | -0.52
CC1CC(C)CN(C(=O)C2(O)c3ccccc3NC(=O)N2c2ccccc2)C1 (centres undefined) | -1.88
O=C(Cc1ccccc1)Oc1ccc(N2C(=O)C3C4CCC(C4)C3C2=O)cc1 (centres undefined) | -6.38*
O=C1OCc2ccc(NC(=O)C3CCCCC3)cc21 | -0.33
CC1(C)Cc2nc3sc4c(Cl)ncnc4c3cc2CO1 | -0.27
Cc1n[nH]c(C)c1S(=O)(=O)N1CCC(C(=O)Nc2ccc(C(C)C)cc2)CC1 | 0.17
Cc1ccc(-c2nc3sc4c(c3c(=O)o2)CCCCC4)cc1 | 1.07
CCN(CC)S(=O)(=O)N1CCC(C(=O)NCc2ccc3c(c2)OCO3)CC1 | -0.56
CN(C)S(=O)(=O)c1ccc2[nH]c(=O)[nH]c2c1 | 0.27
CC(=O)NCCN1C(=O)C(=O)/C(=C(/O)c2ccc(Cl)cc2)C1c1ccccc1F (centres undefined) | 1.53
CN(C)CCCOC(=O)c1ccc2c(c1)OCCO2 | -0.5
NC(=O)CC(NS(=O)(=O)c1cccc2nsnc12)C(=O)O (centres undefined) | 0.05
CCOC(=O)c1ccc(NC(=O)c2cc(-c3ccc(OC)cc3)nc3ccccc23)cc1 | -1.14
CC(=O)c1ccc(C(=O)Nc2nc3c(ccc4ccccc43)s2)cc1 | -0.67
Cc1cc(C)c2oc(-c3ccc(C)c(NC(=O)c4ccccc4)c3)nc2c1 | -0.59
CCN(Cc1ccccc1)C(=O)c1cc2cc3ccc(C)cc3nc2s1 | 1.5
O=CN1C(O)C(O)N(C=O)C(O)C1O (centres undefined) | -0.35
COc1cc(OC)cc(-n2nc(C(=O)N(C)C3CCCCC3)c3ccccc3c2=O)c1 | 0.01
Cc1ccc(N2CCN(C(=O)c3sc4ncn(C)c(=O)c4c3C)CC2C)cc1 (centres undefined) | 1.3
O=C(Nc1c2c(nn1-c1ccc([N+](=O)[O-])cc1)CS(=O)(=O)C2)c1cccc(Br)c1 | -0.25
O=C(Nc1cccnc1Cl)c1noc2c1CCCC2 | 0.83
COc1ccc(Nc2cc(C(=O)NCCc3ccc(C)cc3)c3ccccc3n2)c(OC)c1 | 0.65
Cc1nc2c(ccc3nc(NC(=O)c4ccc(S(=O)(=O)N(CC(C)C)CC(C)C)cc4)sc32)s1 | -0.69
Cc1ccc2nc(SCC(=O)O)[nH]c2c1 | 0.69

High-throughput results: PubChem BioAssay, Emory University Molecular Libraries Screening Center

The list is partial; the hit share may differ from the screen's.
